High-throughput results from PubChem.
DUX4 txn inh: inhibitors of DUX4-driven ZSCAN4 reporter expression, primary screen, 293T cells, Gaussia and Italica luciferase; activity change, negative = inhibition, % (no concentration beside the values); 293T-iDUX4 ZSCAN4-Gaussia luciferase reporter, 24 h; active compounds read low; hit rate 0.8% among 37,000;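 active = -10% or lower and over 25 points stronger than a control reporter; inconclusive = -10% or lower with a smaller gap; inactive = above -10%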;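 note: 0% = median of neutral control wells and -100% = median of positive control wells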
DUX4 txn inh difference: recorded beside DUX4 txn inh, whose call it bears; Gaussia minus Italica difference, %; measured here: selective DUX4 reporter inhibition;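 worked out from the two reporters; negative = selective loss of the DUX4 reporter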
DUX4 txn inh control: second read-out of DUX4 txn inh, no call of its own (marks repeat the call); activity change, negative = inhibition, %; measured here: Italica tet-on control reporter;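 0 = neutral control and -100 = positive control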
Active calls of the source: *; ? = inconclusive; / = no result given; & = joins results of further samples.

SMILES	DUX4 txn inh	DUX4 txn inh difference	DUX4 txn inh control
C[C@H](CO)N1C[C@H](C)[C@@H](CN(C)Cc2ccc(C(F)(F)F)cc2)Oc2c(NC(=O)NC3CCCCC3)cccc2C1=O	4	4	-0.2
O=C(C[C@@H]1CC[C@@H]2[C@H](COC[C@H](O)CN2Cc2ccccc2)O1)NCCCN1CCOCC1	5	-4	9.5
COc1ccc(CN(C)C[C@@H]2OCCCC[C@@H](C)Oc3ccc(NS(C)(=O)=O)cc3C(=O)N([C@@H](C)CO)C[C@H]2C)cc1	1	0	1.5
O=C(c1ccccc1F)N1C[C@@H]2[C@H](c3ccccc31)[C@@H](CO)N2C(=O)C1CCCC1	4	7	-3.3
CNC[C@@H]1Oc2ncc(-c3cc4ccccc4o3)cc2C(=O)N([C@H](C)CO)C[C@@H]1C	0	0	0.8
O=C(CN1CCOCC1)NCC[C@@H]1CC[C@H](NC(=O)c2ccc3c(c2)OCO3)[C@H](CO)O1	11	10	0.9
O=C(C[C@H]1CC[C@@H]2[C@H](COC[C@H](O)CN2C(=O)Nc2cccc(Cl)c2)O1)N1CCCCC1	6	-3	9.1
COc1cccc(-c2ccc([C@@H]3[C@@H](C#N)N(C(=O)Cc4ccncc4)[C@@H]3CO)cc2)c1	0	1	-1.5
Cc1cccc(S(=O)(=O)N[C@H]2CC[C@@H](CCNS(=O)(=O)c3ccccc3F)O[C@@H]2CO)c1	-2	2	-4.4
CCC(=O)N1CC2(C1)[C@@H](c1ccc(-c3ccc(F)cc3)cc1)[C@@H](CO)N2S(C)(=O)=O	8	11	-2.8
COCC(=O)N1C[C@@H]2[C@H](c3ccccc31)[C@@H](CO)N2Cc1ccccc1	0	-1	0.8
COCC(=O)N(C)C[C@@H]1[C@H](c2ccc(-c3ccccc3)cc2)[C@@H](CO)N1C(C)=O	-1	0	-1.0
COC(=O)[C@@H]1[C@@H](CO)[C@@H]2Cn3c(ccc(-c4ccccc4F)c3=O)[C@@H]2N1C(=O)c1cnccn1	11	4	7.3
C[C@@H]1CN([C@H](C)CO)C(=O)CCCn2cc(nn2)CO[C@H]1CN(C)S(C)(=O)=O	1	-6	6.6
CO[C@@H]1CC[C@H]2CCN(C)C(=O)[C@H](C)N(C)C(=O)c3cccc(C#N)c3OC[C@@H]1O2	0	2	-2.9
Cn1cnc(S(=O)(=O)N2C[C@H](O)COC[C@H]3O[C@@H](CC(=O)N4CCN(c5ccccc5)CC4)CC[C@@H]32)c1	6	-4	9.7
CCCC(=O)Nc1ccc2c(c1)C(=O)N(C)C[C@@H](OC)[C@H](C)CN(Cc1cc(-c3ccccc3)on1)[C@H](C)CO2	?	/	/
O=C(NC1Cc2ccccc2C1)[C@@H]1N[C@@H]2c3ccc(C4=CCCC4)c(=O)n3C[C@@H]2[C@H]1CO	-9	-8	-1.6
O=C(CCN1CCCCC1)NCC[C@@H]1CC[C@H](NC(=O)C2CCOCC2)[C@@H](CO)O1	7	8	-0.7
COc1ccc(NC(=O)Nc2ccc3c(c2)C(=O)N([C@H](C)CO)C[C@@H](C)[C@H](CN(C)S(=O)(=O)c2c(C)noc2C)OCCCC[C@H](C)O3)cc1	1	1	0.9

Taken from above:
CO[C@@H]1CC[C@H]2CCN(C)C(=O)[C@H](C)N(C)C(=O)c3cccc(C#N)c3OC[C@@H]1O2 | DUX4 txn inh difference: 2
C[C@@H]1CN([C@H](C)CO)C(=O)CCCn2cc(nn2)CO[C@H]1CN(C)S(C)(=O)=O | DUX4 txn inh difference: -6

(listing goes on)
SMILES	DUX4 txn inh	DUX4 txn inh difference	DUX4 txn inh control
C[C@@H](NC(=O)[C@H]1[C@H](CO)[C@H]2Cn3c(cccc3=O)[C@H]2N1CC1CC1)c1ccccc1	9	4	5.0
COc1ccc2c3c([nH]c2c1)[C@H](CO)N(C(=O)c1ccncc1)CC31CCN(C)CC1	8	-10	18
COc1ccc2c3c(n(C)c2c1)[C@H](CO)N(Cc1nccs1)CC31CN(C)C1	19	16	3.5
Cc1ccc(S(=O)(=O)N[C@@H]2C=C[C@H](CC(=O)NCCCN(C)C)O[C@@H]2CO)cc1	0	0	0.8
COc1ccc(CN(C)C[C@H]2Oc3ccc(NC(=O)Nc4ccc5c(c4)OCO5)cc3CC(=O)N([C@H](C)CO)C[C@H]2C)cc1	1	0	1.0
CO[C@@H]1CC[C@H]2CCOc3ccc(C#N)cc3C(=O)N(C)C[C@@H](c3ccccc3)CC(=O)N(C)C[C@@H]1O2	3	-1	3.5
CCN1[C@@H]2c3ccc(/C=C/c4ccccc4)c(=O)n3C[C@@H]2[C@@H](CO)[C@@H]1C(=O)N(C)C	-2	-2	-0.1
COc1cccc(-c2ccc3n(c2=O)C[C@@H]2[C@@H](CO)[C@H](C(=O)NC4CCC4)[C@H]3N2C)c1	2	4	-2.1
C[C@@H]1CCCCO[C@@H](CN(C)S(=O)(=O)c2ccc(Cl)cc2)[C@@H](C)CN([C@H](C)CO)C(=O)c2cc(NS(=O)(=O)c3cn(C)cn3)ccc2O1	2	1	0.8
CS(=O)(=O)Nc1ccc2c(c1)[C@@H]1C[C@@H](CC(=O)NCc3cccc(F)c3)O[C@@H](CO)[C@@H]1O2	10	7	2.5
COc1ccc(NC(=O)N[C@@H]2CC[C@H](CCNC(=O)CN3CCOCC3)O[C@H]2CO)cc1	8	8	0.8
CCCNC(=O)N1CC2(C1)CN(C(C)=O)[C@H](CO)c1[nH]c3cc(OC)ccc3c12	6	9	-3.5
Cc1cccc(-c2ccc([C@@H]3[C@@H]4CN(C(=O)CN(C)C)C[C@H]3N4)cc2)c1	0	-6	6.5
CN(C)C(=O)c1ccc(-c2ccc3c(c2)[C@@H]2[C@@H](CCN2S(=O)(=O)c2ccccc2)[C@@H](CO)N3)cc1	?	/	/
C[C@H](O)C#Cc1ccc2c(c1)O[C@@H](CN(C)C(=O)C1CCCCC1)[C@H](C)CN([C@@H](C)CO)S2(=O)=O	2	-2	3.6
C[C@H]1CN([C@@H](C)CO)C(=O)CCCn2nncc2CO[C@H]1CN(C)Cc1cccc2c1OCCCO2	-2	-2	0.4
COc1ccc(NC(=O)N(C)C[C@H]2Oc3ccc(NC(=O)Nc4cccc5ccccc45)cc3CC(=O)N([C@H](C)CO)C[C@H]2C)cc1	-3	-2	-0.5
Cn1cnc(CCNC(=O)C[C@H]2CC[C@@H]3[C@H](COC[C@H](O)CN3C(=O)Nc3ccc(F)cc3)O2)c1	9	-1	10
C[C@H](CO)N1C[C@H](C)[C@@H](CN(C)Cc2ccc(C(=O)O)cc2)OCCCC[C@H](C)Oc2ccc(NC(=O)NC3CCCCC3)cc2C1=O	-3	4	-6.7
COc1ccc(S(=O)(=O)Nc2ccc3c(c2)C(=O)N([C@H](C)CO)C[C@H](C)[C@H](CN(C)C(=O)Nc2cccc4ccccc24)OCCCC[C@H](C)O3)cc1	3	-1	4.0
Cc1ccccc1S(=O)(=O)N1CC(=O)N2[C@H](CO)[C@H](c3ccc(C#CCC4CCCC4)cc3)[C@H]2C1	-9	-10	0.8
O=C(C[C@@H]1C[C@H]2c3cc(NC(=O)NC4CCCC4)ccc3O[C@H]2[C@H](CO)O1)NCc1ccc(-c2ccccc2)cc1	-9	-7	-2.1
O=C(NC1CCC1)[C@H]1[C@H](CO)[C@H]2Cn3c(ccc(-c4cncnc4)c3=O)[C@@H]1N2CCc1ccccc1	8	3	5.0
CCNC(=O)C[C@@H]1CC[C@@H]2[C@H](COc3ccc(NC(=O)C4CCCCC4)cc3C(=O)N2C)O1	0	-4	4.4
N#Cc1ccc(-c2ccc([C@H]3[C@H](CO)N4C(=O)CN(C(=O)Cc5ccccc5)C[C@@H]34)cc2)cc1	12	4	8.0
CN1C(=O)c2cc(NC(=O)c3cccc(Cl)c3)ccc2OC[C@H]2O[C@@H](CC(=O)NC3CCCCC3)CC[C@@H]21	1	-3	4.2
CC(C)CC#Cc1ccc([C@@H]2[C@@H](CO)N3C(=O)CN(C(=O)CN4CCOCC4)C[C@H]23)cc1	8	0	7.4
CCCC#Cc1ccc([C@@H]2[C@@H](CO)N3C(=O)CN(C(=O)NCCC)C[C@@H]23)cc1	5	0	4.1
O=C(C1CCCC1)N1CC2(C1)[C@H](c1ccccc1)[C@H](CO)N2C(=O)c1cccnc1	-3	-4	1.1
CNC[C@H]1Oc2c(NC(=O)c3nc4ccccc4s3)cccc2C(=O)N([C@H](C)CO)C[C@H]1C	2	-4	6.7
O=C(C[C@H]1C[C@@H]2c3cc(NC(=O)C4CCOCC4)ccc3O[C@@H]2[C@@H](CO)O1)NCc1ccc(Oc2ccccc2)cc1	?	/	/
CNC[C@@H]1Oc2cc(Br)ccc2S(=O)(=O)N([C@@H](C)CO)C[C@H]1C	2	-2	4.4
COc1cccc(-c2ccc3c(c2)[C@@H]2[C@@H](CCN2C(=O)c2cccc(F)c2)[C@@H](CO)N3)c1	?	/	/
OC[C@H]1[C@@H](c2ccc(Br)cc2)[C@H]2CN(Cc3ccccn3)CCCCN21	-4	-7	2.6
CC(C)CC#Cc1ccc([C@H]2[C@@H](CO)N3C(=O)CN(C(=O)CN4CCOCC4)C[C@H]23)cc1	1	3	-2.1
O=C(c1cccnc1)N1CC(=O)N2[C@@H](CO)[C@@H](c3ccc(/C=C/c4ccccc4)cc3)[C@@H]2C1	?	/	/
Cc1noc(C)c1NC(=O)N1C[C@@H](O)COC[C@H]2O[C@H](CC(=O)N[C@@H]3CCN(Cc4ccccc4)C3)CC[C@@H]21	9	-3	12
CCCNC(=O)NC[C@@H]1[C@H](c2ccc(C3=CCCC3)cc2)[C@@H](CO)N1C(=O)CC	-2	-4	2.3
CN1c2ccc(-c3ccc(C#N)cc3)cc2[C@@H]2[C@@H](CCN2S(=O)(=O)c2ccc(F)cc2)[C@@H]1CO	-6	-4	-2.3
C[C@@H]1CN([C@@H](C)CO)C(=O)c2cccc(NS(=O)(=O)c3ccc(Cl)cc3)c2O[C@H]1CN(C)C(=O)Nc1ccc2c(c1)OCO2	-1	-2	0.9

Next part; it opens with the three that closed the last part.
SMILES	DUX4 txn inh	DUX4 txn inh difference	DUX4 txn inh control
CCCNC(=O)NC[C@@H]1[C@H](c2ccc(C3=CCCC3)cc2)[C@@H](CO)N1C(=O)CC	-2	-4	2.3
CN1c2ccc(-c3ccc(C#N)cc3)cc2[C@@H]2[C@@H](CCN2S(=O)(=O)c2ccc(F)cc2)[C@@H]1CO	-6	-4	-2.3
C[C@@H]1CN([C@@H](C)CO)C(=O)c2cccc(NS(=O)(=O)c3ccc(Cl)cc3)c2O[C@H]1CN(C)C(=O)Nc1ccc2c(c1)OCO2	-1	-2	0.9
C[C@H]1CN([C@@H](C)CO)C(=O)c2cccc(NC(=O)c3cnccn3)c2O[C@H]1CN(C)S(=O)(=O)c1cn(C)cn1	2	1	1.1
O=C(C1CCOCC1)N1CC(=O)N2[C@H](CO)[C@H](c3ccc(Br)cc3)[C@H]2C1	8	7	0.8
Cc1ccc(S(=O)(=O)N(C)C[C@@H]2Oc3cc(C#CC4CCCC4)ccc3S(=O)(=O)N([C@@H](C)CO)C[C@H]2C)cc1	-1	-2	1.2
O=C(Nc1ccc(F)cc1)N1CCCCN2[C@H](CO)[C@@H](c3ccc(-c4cccc(F)c4)cc3)[C@H]2C1	?	/	/
COc1ccccc1-c1ccccc1[C@H]1[C@H](C#N)N(C(=O)C2CC2)[C@H]1CO	3	1	2.7
CO[C@@H]1CN(C)C(=O)c2ccc(NS(=O)(=O)c3cccc(Cl)c3)cc2OC[C@@H](C)N(C(=O)Cc2cccnc2)C[C@H]1C	-1	-5	3.5
COc1cccc(CNC(=O)C[C@H]2CC[C@@H]3[C@@H](COc4ccc(NS(=O)(=O)c5ccccc5F)cc4C(=O)N3C)O2)c1	1	-1	2.6
C[C@@H]1CCCCO[C@H](CN(C)C(=O)Nc2cccc3ccccc23)[C@@H](C)CN([C@H](C)CO)C(=O)c2cc(NC(=O)CCC(F)(F)F)ccc2O1	6	4	1.8
COc1ccc2c3c(n(C)c2c1)[C@@H](CO)NCC31CCN(S(=O)(=O)c2cccc(F)c2)CC1	?	/	/
O=C(Nc1cc(F)ccc1F)N1[C@@H]2CNC[C@H]1C2c1ccc(/C=C/c2ccccc2)cc1 (stereo partly drawn)	12&9	0&-9	12&18
O=C(C[C@@H]1CC[C@H]2[C@@H](COC[C@@H](O)CN2S(=O)(=O)c2ccccc2)O1)N1CCc2ccccc2C1	2	7	-4.9
CNC[C@H]1OCCCC[C@H](C)Oc2ccc(NS(=O)(=O)c3c(C)noc3C)cc2C(=O)N([C@@H](C)CO)C[C@H]1C	3	4	-1.0
N#C[C@H]1[C@@H](c2ccc(C#Cc3cccc(F)c3)cc2)[C@@H](CO)N1C(=O)C1CCC1	5	1	4.0

Record cards, from the list above.
`C[C@H]1CN([C@@H](C)CO)C(=O)c2cccc(NC(=O)c3cnccn3)c2O[C@H]1CN(C)S(=O)(=O)c1cn(C)cn1` is listed with DUX4 txn inh: 2; DUX4 txn inh difference: 1; DUX4 txn inh control: 1.1
`COc1ccccc1-c1ccccc1[C@H]1[C@H](C#N)N(C(=O)C2CC2)[C@H]1CO` is listed with DUX4 txn inh: 3; DUX4 txn inh difference: 1; DUX4 txn inh control: 2.7
`O=C(Nc1cc(F)ccc1F)N1[C@@H]2CNC[C@H]1C2c1ccc(/C=C/c2ccccc2)cc1` (stereo partly drawn) is listed with DUX4 txn inh: 12&9; DUX4 txn inh difference: 0&-9; DUX4 txn inh control: 12&18

This is a subset; count on the stated rates, not on these rows.
